# Assay outcomes: PubChem BioAssay, National Center for Advancing Translational Sciences (NCATS)
# Menin MLL FP TR: qHTS Assay for Inhibitors Targeting the Menin-MLL Interaction in MLL Related Leukemias: Competition With Texas Red Labeled MLL-derived Mutant Peptide | AID 1768, 2009 | Potency, µM (doses to about 61.6 µM), without a hit: top-dose FP activity change, negative = inhibition, actives largely listed as inhibitors | Menin + Texas Red MLL mutant peptide, fluorescence polarization | O00255 | 270,000 compounds, 0.23% hits; active = well fitted inhibition curve with a large enough effect in the polarisation, with a control signal flat, not every such curve was filed as active; inconclusive = small, poorly fitted or top-dose-only effect, or effect the other way, or a change in a side signal; inactive = no such curve, though single readings can be large or run the other way; the % refers to the polarisation; also: potency is read from the fitted curve at half-maximal effect; % of control where 0% means no effect; many of its hits are not listed in these tables
# FLuc modulator: qHTS profiling assay for firefly luciferase inhibitor/activator using purifed enzyme and Km concentrations of substrates (counterscreen for miR-21 project). purified FLuc, Km substrates, luminescence inhibition. Luciferin 4-monooxygenase (Photinus pyralis), P08659. 360,000 compounds, 6.9% hits. Potency, µM (doses to about 57.5 µM), inactives show at the highest dose activity change, negative = inhibition, usual class: inhibitors. AID 588342, 2011;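 also: potency is read from the fitted curve at half-maximal effect; plate controls were vehicle for no effect and reference inhibitor for full effect; nearly all actives have a fitted effect of over 55% in size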
# Target sequence (P08659 whole entry, looked up): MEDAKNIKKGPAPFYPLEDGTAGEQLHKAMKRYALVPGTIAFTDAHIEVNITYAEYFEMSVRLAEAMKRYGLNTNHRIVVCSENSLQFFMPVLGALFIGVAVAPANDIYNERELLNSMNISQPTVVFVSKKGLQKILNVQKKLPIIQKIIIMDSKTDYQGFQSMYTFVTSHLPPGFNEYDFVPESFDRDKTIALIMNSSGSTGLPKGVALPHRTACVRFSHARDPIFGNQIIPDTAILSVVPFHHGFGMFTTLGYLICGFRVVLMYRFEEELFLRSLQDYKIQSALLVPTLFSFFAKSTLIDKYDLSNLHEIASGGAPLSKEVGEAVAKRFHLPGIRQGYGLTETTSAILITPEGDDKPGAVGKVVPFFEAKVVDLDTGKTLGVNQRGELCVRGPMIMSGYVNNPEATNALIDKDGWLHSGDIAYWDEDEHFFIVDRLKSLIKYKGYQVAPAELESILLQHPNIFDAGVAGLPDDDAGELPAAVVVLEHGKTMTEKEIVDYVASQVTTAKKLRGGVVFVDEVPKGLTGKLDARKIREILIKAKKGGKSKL
#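 Biochemical qHTS of compounds, final roughly 60 µM downward over six points, against 10 nM purified firefly luciferase using Km concentrations of substrates (10 uM D-luciferin, 10 uM ATP) in Tris acetate pH 7.5 buffer; luminescence output.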
# KCNH2 3.1 block: qHTS for Inhibitors of KCHN2 3.1: Mutant qHTS; Potassium voltage-gated channel subfamily H member 2, brain isoform KCNH2 3.1 (human); U2OS KCNH2 3.1, thallium flux FluxOr; stronger effect = lower value; activity change, % (tested at about 1.8 µM); 340,000 compounds, 0.95% hits;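 active = maximum activity change below -70%; inconclusive = maximum activity change from -70% to -50%; inactive = maximum activity change above -50%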;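 also: thallium influx rate constant from kinetic fluorescence after stimulation buffer; % is scaled to controls: 0 for no effect and ±100 for the full control effect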
#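 Normalized rate constant (relative to positive and negative DMSO controls) derived from a 2 min kinetic fluorescence read after stimulation; U2OS cells expressing the 3.1 isoform via virus at 1.77 x 10^8 /mL.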
# NPC1 promoter act: qHTS Assay for NPC1 Promoter Activators; Huh7 NPC1 promoter luciferase reporter, 24 h; Potency, µM (titrated, usually from 9.22 µM), for inactives: at the highest dose activation, hits mostly activators; 320,000 compounds, 2.4% hits;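 also: potency is read from the fitted curve at half-maximal effect; % of control where 0% means no effect; nearly all actives have a fitted effect of over 60% in size; reporter is driven by a mutant NPC1 promoter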
#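 Stable NPC1-promoter luciferase Huh7 line; cpd (DMSO) 24 h, 37 °C, 5% CO2; Amplite luciferase reagent 10 min RT; luminescence readout. qHTS format.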
# ELG1 DNA repair: qHTS screen for small molecules that inhibit ELG1-dependent DNA repair in human embryonic kidney (HEK293T) cells expressing luciferase-tagged ELG1; HEK293T ELG1-luciferase reporter, luminescence, 16 h; DNA damage induced by 5-fluorouridine; Potency, µM (titrated, usually from 46.1 µM), without a hit: at the top dose activity change, negative = inhibition, actives largely listed as inhibitors; 330,000 compounds, 2.3% hits; also: potency is read from the fitted curve at half-maximal effect; % is scaled to controls: 0 for no effect and ±100 for the full control effect; nearly all actives have a fitted effect of over 55% in size
#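 DMSO vehicle served as the neutral condition. Each well held 2,000 cells given 5-fluorouridine plus compound; after 16 hr at 37 °C/5% CO2, ONE-Glo was added and luciferase measured 30 min later.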
# VP16 counter: VP16 counterscreen qHTS for inhibitors of ROR gamma transcriptional activity; Drosophila S2 Gal4-VP16 UAS-luciferase, luminescence, 20 h; Potency, µM (highest dose often 53.6 µM), for inactives: top-dose activity, negative = inhibition, actives largely listed as inhibitors; 310,000 compounds, 3.5% hits; AID 2546, 2010;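 also: Gal4-VP16 expression switched on by copper sulfate through the metallothionein promoter; potency is read from the fitted curve at half-maximal effect; % is scaled to controls: 0 for no effect and ±100 for the full control effect; nearly all actives have a fitted effect of over 50% in size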
# MBNL1-CUG inh: qHTS Assay for Inhibitors of MBNL1-poly(CUG) RNA binding; 280,000 compounds, 0.036% hits; AID 2675, 2010; Potency, µM (doses to about 57.5 µM), inactives show at the top dose activity change, negative = inhibition, hits mostly inhibitors; TR-FRET MBNL1-His/biotin-(CUG)12 binding, 665/545 ratio; active = well fitted inhibition curve with a large enough effect in the signal ratio, with a control signal flat, not every such curve was filed as active; inconclusive = small, poorly fitted or top-dose-only effect, or effect the other way, or a change in a side signal; inactive = no such curve, though single readings can be large or run the other way; the % refers to the signal ratio; also: potency is read from the fitted curve at half-maximal effect; % is scaled to controls: 0 for no effect and ±100 for the full control effect
#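 TR-FRET between His-tagged MBNL1 and biotin-(CUG)12 RNA, detected with Tb anti-His antibody (0.055 ng/ul) and streptavidin-XL665 (5 nM), 60 min at room temperature. Compounds titrated 92 nM to 58 uM; 665/545 nm ratio normalized to buffer and complex controls.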
# RORgamma inh: qHTS for inhibitors of ROR gamma transcriptional activity. Nuclear receptor ROR-gamma (Mus musculus), P51450. Drosophila S2 Gal4-RORgamma UAS-luciferase reporter, 20 h. Potency, µM (highest dose often 53.6 µM), for the others: at the top dose activity change, negative = inhibition, hits mostly inhibitors. 310,000 compounds, 5.4% hits. AID 2551, 2010; also: potency is read from the fitted curve at half-maximal effect; % is scaled to controls: 0 for no effect and ±100 for the full control effect; nearly all actives have a fitted effect of over 60% in size
# Target sequence (P51450 whole entry, looked up, the tested form may be a part): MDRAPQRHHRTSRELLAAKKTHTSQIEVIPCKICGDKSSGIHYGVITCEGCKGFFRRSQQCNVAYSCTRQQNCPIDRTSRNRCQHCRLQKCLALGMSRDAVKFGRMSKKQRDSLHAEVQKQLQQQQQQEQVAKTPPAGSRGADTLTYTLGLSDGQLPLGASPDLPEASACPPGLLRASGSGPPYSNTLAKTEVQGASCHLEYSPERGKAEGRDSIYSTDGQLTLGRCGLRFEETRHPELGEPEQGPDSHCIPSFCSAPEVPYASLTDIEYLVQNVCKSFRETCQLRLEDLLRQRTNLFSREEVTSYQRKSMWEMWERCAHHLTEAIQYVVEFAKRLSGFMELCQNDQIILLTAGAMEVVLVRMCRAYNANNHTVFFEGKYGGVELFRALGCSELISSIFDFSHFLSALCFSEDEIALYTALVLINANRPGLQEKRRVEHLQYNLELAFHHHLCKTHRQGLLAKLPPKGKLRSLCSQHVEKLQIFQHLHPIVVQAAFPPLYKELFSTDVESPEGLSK
#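 Luciferase reporter read in Schneider cells carrying Gal4-RORγ (mouse) and UAS-Photinus luciferase; cells given compound 1 h before 700 uM copper sulfate induction, then incubated 20 h at ambient temperature.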
# Mito fusion yeast: qHTS Assay for Small Molecule Inhibitors of Mitochondrial Division or Activators of Mitochondrial Fusion; S. cerevisiae fusion-defective mutant growth rescue, CellTiterGlo 48 h; Potency, µM (titrated, usually from 46.1 µM), without a hit: at the top dose growth rescue (activation), usual class: activators; 320,000 compounds, 0.23% hits;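 also: potency is read from the fitted curve at half-maximal effect; % of control where 0% means no effect; nearly all actives have a fitted effect of over 45% in size; temperature-sensitive fusion mutants such as fzo1-1 at 37 °C on non-fermentable ethanol glycerol medium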
#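 Growth-rescue viability read-out: after 48 h at the non-permissive 37C in glycerol/ethanol YPEG, yeast mitochondrial fusion mutants are measured by CellTiterGlo luminescence; compounds (23 nl pinned per well) restoring growth score as division inhibitors or fusion activators.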
# Rab9 promoter act: qHTS Assay for Rab9 Promoter Activators. Huh7 Rab9 promoter-luciferase reporter, luminescence, 24 h. Potency, µM (doses to about 9.22 µM), inactives show at the top dose activation, negative = inhibition, usual class: activators. 320,000 compounds, 2.8% hits. AID 485297, 2010; also: potency is read from the fitted curve at half-maximal effect; % of control where 0% means no effect; nearly all actives have a fitted effect of over 60% in size
#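 Cells were plated at 1500 per well in reduced-serum medium with 10% FBS and left 2 h. Compound in DMSO was then added for 24 h at 37 °C. Reporter signal was read by luminescence after 10 min with luciferase detection reagent.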
# Active calls of the source: *; ? = inconclusive; . = no result given; [ ] = remark or other dose. Unless noted, calls follow the shape of the dose curve; as a rule, active = well fitted curve in the direction sought with a large enough effect; inconclusive = small, poorly fitted or top-dose-only effect, or another doubt; inactive = no such curve, though single readings can be large; an effect the other way counts as inactive or inconclusive. An excerpt (hit frequency here may not be typical).
canonical_smiles,NPC1 promoter act,KCNH2 3.1 block,Menin MLL FP TR,Mito fusion yeast,VP16 counter,ELG1 DNA repair,Rab9 promoter act,MBNL1-CUG inh,RORgamma inh,FLuc modulator
COc1ccc(CN2CCC(=O)N([C@H](CO)c3ccccc3)CC2)cc1,-5%,-4,-25%,0%,-5%,0%,3%,?,-10%,1%
Cn1c2ccccc2c2cnn(CC(=O)Nc3ccc(Cl)cc3)c(=O)c21,-3%,1,.,2%,5%,-4%,1%,3%,1%,1%
CCOC(=O)N1CCN(C(=O)c2ccc3c(=O)n4c(nc3c2)CCCCC4)CC1,1%,4,6%,-5%,-15%,0%,-2%,-4%,-6%,-7%
COc1cc(CN2CCN(C(=O)CC(C)C)CC2)cc(OC)c1O,-1%,6,9%,2%,-5%,0%,-8%,-1%,-17%,1%
Cc1ccc(C2CC(C(F)(F)F)n3nc(C(=O)NCc4ccco4)cc3N2)cc1 (stereo unspecified),-1%,-17,2%,-2%,-2%,-4%,12%,-2%,4%,0%
Cn1c(SCC(=O)NC(C)(C)C)nnc1-c1ccc(C(C)(C)C)cc1,1%,0,-15%,3%,?,?,-2%,5%,-7%,-19%
FC(F)(F)c1cccc(-n2c(Cn3nnc4ccccc43)n[nH]c2=S)c1,5%,-17,.,-2%,?,2%,-8%,-19%,?,-1%
COC(=O)c1c(C)nn(-c2ccc(F)c(Cl)c2)c1-c1cc(C)on1,-1%,6,.,8%,-16%,?,-1%,.,9%,2%
Cc1ccc(CN2CCC(C(=O)Nc3ccc(Oc4cccnc4)cc3)CC2)cc1,4%,-29,-6%,-3%,.,?,-7%,-3%,.,-2%
CC(C)(C)NC(=O)CN(C(=O)c1csnn1)c1cccc2c1CCCC2,-3%,-2,-11%,1%,0%,-2%,0%,-4%,-8%,4%
COc1ccc(CCNS(=O)(=O)c2ccc3c(c2)CC(C)N3C(C)=O)cc1OC (stereo unspecified),-2%,-3,-4%,-1%,-29%,?,2%,-3%,?,1%
COC(=O)C1=C(C)C(c2ccc(OC)cc2OC)NC(=O)N1 (stereo unspecified),7%,-5,0%,2%,2%,0%,-7%,5%,0%[10 µM],-3%
CCNC(=O)CC1C(=O)N(c2ccc(F)cc2)C(=O)N1Cc1ccc(OC)cc1 (stereo unspecified),1%,-7,-15%,5%,?,?,17%,-2%,19%,-17%
CCN1CCN(CCc2nc3cc(NC(=O)COc4ccc(Cl)cc4)ccc3n2C)CC1,0%,-32,.,8%,-1%,1%,1%,2%,10%,4%
O=C(O)CCCC(=O)N1CCCC1,-2%,3,-1%,-3%,-10%,-7%,-3%,-8%,-17%,-2%
CCOc1ccccc1N(CC(=O)N1CCOCC1)S(=O)(=O)c1ccc(SC)cc1,1%,-13,-15%,1%,7%,13%,1%,1%,-15%,5%
CCNC(=S)N/N=C/c1cccc(/C=N/NC(=S)NCC)c1,9%,-2,-16%,1%,-22%,-7%,14%,-1%,?,2%
CCOc1ccc(N2C(=O)CSC2c2ccncc2)cc1 (stereo unspecified),-4%,8,13%,0%,-5%,0%,0%,5%,-1%,4%
CC(=O)N1C(=S)NC(=O)/C1=C1/C(=O)N(CC(=O)Nc2cccc(C)c2)c2ccccc21,2%,2,3%,-2%,-6%,-6%,-2%,.,-2%,3%
Cc1cccn2cc(-c3ccc4c(c3)NC(=O)CO4)nc12,25%,-4,.,3%,-4%,?,?,.,11%,11µM*
CCOc1ccc(N2C(=O)CC(SCC(=O)O)C2=O)cc1 (stereo unspecified),-6%,-7,-29%,-7%,-1%,-3%,2%,-7%,-2%,1%
CCC(C)(C)n1nnnc1C(c1cc2ccc(OC)cc2[nH]c1=O)N1CCN(C2CCCCC2)CC1 (stereo unspecified),-6%,.,-17%,-1%,1%,5%,2%,-1%,14%,4%
c1ccc2cc(-c3cc4ccccn4c3)ccc2c1,3.2µM*,?,-3%,2%,6%,?,3.2µM*,19%,?,0.85µM*
O=C(CSc1ccc2nnc(CCNC(=O)c3ccc(F)cc3)n2n1)NCc1ccco1,-5%,.,.,1%,-5%,-4%,0%,13%,19%,1%
COc1ccc(-n2c(SCC(=O)C(C)(C)C)nc3ccsc3c2=O)cc1,0%,7,0%,3%,-14%,-15%,0%,0%,-1%,1%

# Some of these compounds in order of the NPC1 promoter act value, rising:
Structure	NPC1 promoter act
O=C(CSc1ccc2nnc(CCNC(=O)c3ccc(F)cc3)n2n1)NCc1ccco1	-5%
COc1ccc(CCNS(=O)(=O)c2ccc3c(c2)CC(C)N3C(C)=O)cc1OC (stereo unspecified)	-2%
CC(=O)N1C(=S)NC(=O)/C1=C1/C(=O)N(CC(=O)Nc2cccc(C)c2)c2ccccc21	2%
COC(=O)C1=C(C)C(c2ccc(OC)cc2OC)NC(=O)N1 (stereo unspecified)	7%
CCNC(=S)N/N=C/c1cccc(/C=N/NC(=S)NCC)c1	9%

# Record cards, as listed above. Screens in order: NPC1 promoter act	KCNH2 3.1 block	Menin MLL FP TR	Mito fusion yeast	VP16 counter	ELG1 DNA repair	Rab9 promoter act	MBNL1-CUG inh	RORgamma inh	FLuc modulator
# Cn1c(SCC(=O)NC(C)(C)C)nnc1-c1ccc(C(C)(C)C)cc1 is entered as 1%	0	-15%	3%	?	?	-2%	5%	-7%	-19%
# CCNC(=O)CC1C(=O)N(c2ccc(F)cc2)C(=O)N1Cc1ccc(OC)cc1 (stereo unspecified) is entered as 1%	-7	-15%	5%	?	?	17%	-2%	19%	-17%

# (list continues)
canonical_smiles,NPC1 promoter act,KCNH2 3.1 block,Menin MLL FP TR,Mito fusion yeast,VP16 counter,ELG1 DNA repair,Rab9 promoter act,MBNL1-CUG inh,RORgamma inh,FLuc modulator
CCOC(=O)c1c(C)n(OC)c2ccc3c(no[n+]3[O-])c12,-1%,7,2%,2%,5%,7%,12%,0%,-21%,3%
Cc1cc(C)n2c(SCc3nnc(-c4cccs4)o3)nnc2n1,0%,-5,2%,-4%,-1%,4%,-2%,6%,27%,-1%
COc1ccc(-c2cc(C(=O)NCc3ccco3)c3ccccc3n2)c(OC)c1,-4%,12,12%,-5%,-3%,-30%,0%,28%,6%,?
CCc1ccccc1NS(=O)(=O)Cc1ccccc1,-6%,1,-8%,3%,-19%,2%,3%,-5%,1%,-2%
CC(C)(C)c1nnc(NC(=O)NS(=O)(=O)c2ccccc2)s1,0%,-23,-1%,-3%,-1%,?,5%,2%,-3%,-7%
O=C(Nc1ccccc1)C1=C[C@@H](c2coc3ccccc3c2=O)C[C@@H](OCc2ccc(CO)cc2)O1,0%,34,7%,3%,14%,?,-6%,0%,28%,4%
CC1CC(C(F)(F)C(F)(F)F)n2nc(C(=O)O)cc2N1 (stereo unspecified),12%,2,-15%,0%,-3%,-4%,-1%,?,-17%[10 µM],0%
COc1ccc(OC)c(N(CC(N)=O)S(=O)(=O)c2ccc(OC)c(OC)c2)c1,-2%,-3,2%,1%,-10%,1%,-5%,-11%,-1%,0%
COc1ccc(N(C(C)=O)S(=O)(=O)c2cc(OC)ccc2OC)cc1,-3%,2,-4%,5%,-3%,-16%,-1%,-5%,4%,4%
CCOc1cc(C(=O)O)cc(Cl)c1OC,-5%,7,6%,-5%,-4%,-5%,-7%,2%,4%,5%
NC(=O)c1ccccc1NC(=O)CCCN1C(=O)CCC1=O,-5%,-8,13%,-2%,6%,7%,1%,0%,-3%,1%
COc1ccc(C2C(C#N)=C(N)OC3=C2C(=O)CC(C)(C)C3)c(OC)c1OC (stereo unspecified),0%,-5,-12%,-5%,2%,12%,0%,-5%,2%,3%
COCc1nnc(NC(=O)CSCc2ccccc2)s1,6%,-6,10%,2%,-17%,23%,10%,8%,11µM*,-10%
CC(C)N1CCN(Cc2ccc3c(c2)Cc2ccccc2-3)CC1CCO (stereo unspecified),-2%,-35,-21%,2%,-3%,3%,-1%,-2%,-11%,1%
